# NPYLR7 ag: activates Aedes aegypti NPYLR7 receptor. HEK293T NPYLR7/Galpha15, GCaMP6s calcium fluorescence. activation, % at 10 µM. 270,000 compounds, 0.15% hits; in the data active = activation above about 40%;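 also: 0% = vehicle and 100% = reference agonist at the receptor; some compounds past the cut are filed as inactive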
# NPYLR7 ag max-min: recorded beside NPYLR7 ag, whose call it bears; activation, %; measured here: Max-Min RFU normalised activation; some inactives read as strong as hits;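 span of the calcium signal over five minutes; 0% = vehicle and 100% = native peptide agonist; compound fluorescence can raise it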
# Starred values were filed as active, the others as inactive. Only part of the results is shown. The share of hits here may be higher or lower than overall.
item	canonical_smiles	NPYLR7 ag	NPYLR7 ag max-min
1	CCOc1ccc2ncc(C#N)c(Cl)c2c1	10	3
2	O=C(CN1CCC(C(=O)N2CCCCCC2)CC1)Nc1ccc(N2CCCC2=O)cc1	-2	-3
3	Cc1ccc(-c2cc(O)c3c(c2)CN(C(=O)c2ccnc(N)c2)CCO3)s1	1	-12
4	CCN(CC)CC(O)CN1C(=O)NC(C)(C)C1=O (stereo not drawn)	5	1
5	Cc1ccc(S(=O)(=O)Nc2nc(CN3CCN(c4ccccn4)CC3)cs2)cc1	-2	2
6	CN1CCCC2(CCN(Cc3ccccc3OCC(=O)O)C2)C1=O (stereo not drawn)	6	4
7	Cc1cc2cc(NC(=O)c3ccc(CN4CC[C@H](O)C4)cc3)ccc2o1	-1	-1
8	Cc1cc(=O)n2[nH]c(C)c(-c3ccc(Cl)cc3)c2n1	-2	-5
9	CC(NCc1ccccc1F)c1cccc2ccccc12 (stereo not drawn)	-3	-5
10	CC1COc2ncccc2C(=O)N1 (stereo not drawn)	0	10
11	CCN(CC)S(=O)(=O)c1ccc2c(c1)nc(SCc1c(F)cccc1Cl)n2C(C)C	17	9
12	CCc1cccc(N2C(=O)CSC2c2ccc(NC(=O)c3cccc(Br)c3)cc2)c1 (stereo not drawn)	-4	12
13	CN(C)CCN(CCc1ccccc1)c1ncc(Br)cn1	-1	-1
14	Cc1nc2c(c(N3CCCC3)n1)CN(C(=O)Nc1cccc(Br)c1)CC2	17	17
15	O=C(C1CCC1)N(Cc1ccccc1)[C@@H]1CC[C@H]2C[C@@H]1[C@@H](O)CO2	24	34
16	COc1ccc(CNC(=O)c2ccc(-c3cccc(Cl)c3)s2)cc1	0	11
17	CCc1nc2c(OCCn3cccc3)cccn2c1N(C)C(=O)C1CC1	-8	-8
18	COc1ccc(-c2noc(-c3ccc(N(C)C(C)c4ccon4)nc3)n2)cc1 (stereo not drawn)	9	-1
19	O=C(CCc1ccco1)N1CCOC(COCc2c(Cl)cccc2Cl)C1 (stereo not drawn)	5	17
20	COc1cccc(C2c3[nH]c4ccccc4c3CCN2C(=O)c2cc(C3CC3)on2)c1OC (stereo not drawn)	5	-1
21	Cc1cc(C(=O)N2CCC(n3c(=O)oc4ccc(Cl)cc43)CC2)n(C(C)(C)C)n1	28	26
22	COc1cccc(-c2noc(CN3CCCc4c(C(=O)NC(C)C)cccc43)n2)c1	1	11
23	CN(C)[C@@H]1C[C@@H](C(=O)O)N(Cc2cnn3cccnc23)C1	13	12
24	O=C(CCNC(=O)c1ccccc1F)NC[C@H]1C[C@H]2C=C[C@H]1C21CC1	22	13
25	O=C1NCC2(CCCN(C(=O)c3cn[nH]c3C3CCCCC3)C2)O1 (stereo not drawn)	6	5
26	Cc1csc(C(C)(C)NCC(=O)N2CCCC(C(F)(F)F)C2)n1 (stereo not drawn)	3	4
27	COCCOC(=NCCC(C)C)NC(=O)c1cccc(C)c1	-3	-1
28	CCOc1cccc(N2C(=O)CC(N3CCN(c4ccc(F)cc4)CC3)C2=O)c1 (stereo not drawn)	0	0
29	CN(Cc1nc2ccc(F)cc2[nH]1)C(=O)c1cnn(Cc2ccccc2)c1	-3	-6
30	CN(C)c1ccc(-n2c(-c3snnc3-c3ccccc3)n[nH]c2=S)cc1	-8	-14
31	CN(CC(=O)N1CCCC1)c1ncnc2sc3c(c12)CCCC3	-1	13
32	Cc1cccc(-n2c(-c3ccc(Cl)cc3)cc(C(=O)N3CCN(C(=O)c4ccc(F)cc4)CC3)c2C)c1	-9	-9
33	COc1ccc(Br)c(C(=O)NCC2CCN(c3ncccn3)CC2)c1	-9	-9
34	CC(C1CC1)N(Cc1ccccc1)CC(O)CN1C(=O)c2ccccc2C1=O (stereo not drawn)	-7	-5
35	CC(C)O[C@H]1CN(c2nccc(CCC(F)(F)F)n2)C[C@@H]1O	10	7
36	Cn1cc(C(=O)NC2CCCC2)c2[nH]c(=O)n(-c3ccc(Cl)cc3)c(=O)c21	1	1
37	O=C(Nc1ccc2[nH]ncc2c1)c1cccnc1Nc1cccc(C(F)(F)F)c1	-6	-10
38	CCN(CC)S(=O)(=O)c1ccc(OC)c(N2CCN(S(=O)(=O)c3ccc(Cl)cc3)CC2)c1	6	4
39	Cc1ccc(-n2c(=O)c3ccccc3n(Cc3ccc(C(=O)NC(C)c4ccccc4)cc3)c2=O)cc1C (stereo not drawn)	30	24
40	COC(=O)c1cccc(CN(Cc2ccccc2)Cc2cccn2Cc2ccc(C(F)(F)F)cc2)c1	9	10
41	COC(=O)C(Nc1nc(C)cc(OC)n1)C(C)C (stereo not drawn)	7	11
42	O=C(CSc1ncnc2sc3c(c12)CCC3)c1ccc(Cl)s1	18	14
43	COc1ccc(Cl)cc1C(=O)Nc1c(C)nc2ccc(Cl)cn2c1=O	5	1
44	N#Cc1c(N)nc2c(c1-c1cccnc1)CCCC2	-3	-3
45	CCC(=O)N(c1nnc(SCc2cc(=O)n3nc(CC)sc3n2)s1)C1CC1	-5	0
46	C=CCN(CC(=O)N1CCc2sccc2C1c1ccc(C)cc1)C(=O)c1cccc(Cl)c1 (stereo not drawn)	-11	-7
47	COc1cc(-c2nc3cc(C)ccn3c2NCc2ccccc2)ccc1OC(=O)C1CCCCC1	11	16
48	c1cc(C2CN(c3ncnc4nc[nH]c34)C2)ccn1	16	3
49	CCOC(=O)N1CCC(NC2CC(=O)N(C3CCCCCC3)C2)CC1 (stereo not drawn)	12	5
50	N#CC(C(=O)Cn1nnc2ccccc21)c1ccc(C(F)(F)F)cn1 (stereo not drawn)	0	-2
51	COc1cc(OC)cc(C(=O)N(CC(=O)N(Cc2cccn2Cc2ccccc2Cl)CC(C)C)C(C)C)c1	1	17
52	CCC(C)(C)C(=O)NS(=O)(=O)/C=C/c1ccccc1	-2	-3
53	Cc1ccc(N2C(=O)CSC2c2cccc(NC(=O)COc3ccc(Cl)cc3)c2)cc1F (stereo not drawn)	17	10
54	COc1cc2c(cc1OC)CN(C(=O)COC(=O)c1ccc(F)cc1F)CC2	-1	-3
55	COCC(NC(=O)c1cc(Cl)c[nH]c1=O)c1ccnn1C (stereo not drawn)	-1	-6
56	Cc1ccc(C(=O)OCc2cc(=O)n3c(C)csc3n2)s1	5	0
57	CN1[C@H](C(=O)O)C[C@H](C(=O)NCCc2cnc[nH]2)[C@@H]1c1cccc(Cl)c1	13	9
58	CCc1cnc2c(c1SCc1cccc(C(F)(F)F)c1)c(=O)n(C)c(=O)n2C	2	6
59	CCN1C(=O)C(=Cc2cccs2)SC1=S	-15	-23
60	O=C(O)/C=C/c1csc(S(=O)(=O)N2CCCC2)c1	-3	-5

# (cont.)
item	canonical_smiles	NPYLR7 ag	NPYLR7 ag max-min
61	Cc1ccccc1Cn1ccnc1CN(Cc1ccco1)C(=O)c1ccccc1F	17	18
62	CCOCCCn1c(SCc2cc(F)ccc2C)nc2cc(S(=O)(=O)N3CCCC(C)C3)ccc21 (stereo not drawn)	4	2
63	Cc1nonc1CN(C)C(=O)c1cn(CCN2CCCCC2)nn1	1	-2
64	CCN(CC(=O)NC(C)C)C(=O)c1cccc(S(=O)(=O)N2CCc3ccccc3C2)c1	1	0
65	CCc1ccccc1N1CCN(C(=O)CCc2ccccc2)C(C)C1=O (stereo not drawn)	-1	1
66	Cc1ccnc(SCc2cc(=O)c(OC(=O)c3ccccc3)co2)n1	-17	-17
67	N#Cc1cccc(CSc2nnc(-c3cccc(Br)c3)o2)c1	3	7
68	Nc1nccnc1C(=O)N1CCN(Cc2ccc(-c3ccccc3Cl)s2)CC1	5	3
69	CNC(=O)COc1coc(CN2CCc3ccccc3C2)cc1=O	2	2
70	CNC(=O)[C@@H]1C[C@H](N)CN1C(=O)c1cc(Cl)cc(OC)c1	16	6
71	CCOC(=O)CC(NS(=O)(=O)c1cc(OC)c(C)cc1C)c1ccc(C)cc1 (stereo not drawn)	-3	5
72	C=CCNC(=S)Nc1ccc(Cl)cc1Cl	12	12

# Next section, starting with the last two of the part before.
item	canonical_smiles	NPYLR7 ag	NPYLR7 ag max-min
71	CCOC(=O)CC(NS(=O)(=O)c1cc(OC)c(C)cc1C)c1ccc(C)cc1 (stereo not drawn)	-3	5
72	C=CCNC(=S)Nc1ccc(Cl)cc1Cl	12	12
73	COc1cccc(-c2nnc(SCc3ccc(C(=O)N4CCOCC4)cc3)n2-c2ccccc2C)c1	1	8
74	CCOC(=O)c1sc(=NC(=O)c2ccc(S(=O)(=O)N(C)C3CCCCC3)cc2)n(C)c1C	1	7
75	Cc1nn(C)c(C)c1C(C)NC(=O)N(Cc1ccccc1)C(C)C (stereo not drawn)	-4	-6
76	O=C(c1ccc2c3c(cccc13)CC2)C1CCCN(C(=O)CCN2CCCO2)C1 (stereo not drawn)	3	4
77	CCCOc1ccc(C2=CSC3=NCCN23)cc1	11	4
78	CCCCC(=O)N(C)c1c(C)nc2ccc(C(=O)Nc3cc(-c4ccccc4)ccc3OC)cn12	-1	-8
79	Cc1ccsc1CN(Cc1ccc2c(c1)OCO2)C(=O)CN(C(=O)c1cccs1)C1CCCCC1	-6	-16
80	Oc1ccc(/C=N\Nc2nc(N3CCOCC3)nc(N3CCOCC3)n2)cc1O	19	5
81	Cc1cc(C(=O)Nc2cc(C(N)=O)sc2C)ccc1F	-3	23
82	O=S(=O)(CCNCc1cccs1)N1CCc2ccccc21	0	0
83	COc1cccnc1C(=O)N1CCC(N2CCCC(C(=O)NC3CC3)C2)CC1 (stereo not drawn)	26	18
84	Cc1ccc(OCC2c3ccsc3CCN2C(=O)CN(C(=O)Cc2ccccc2)C2CC2)c(C)c1 (stereo not drawn)	2	19
85	CC(NC(=O)CCN(CCCN1CCOCC1)c1nc(-c2ccc(F)cc2)nc2ccccc12)c1ccccc1 (stereo not drawn)	18	16
86	CN(Cc1nccn1C)c1ncnc2sc3c(c12)CCCC3	14	13
87	Cc1ccc(C)c(SCC(=O)NNC(=O)c2nn(C)c(=O)c3ccccc23)c1	0	-2
88	COc1ccccc1OC1CN(C(=O)CCC2CCCN(C)C2)C1 (stereo not drawn)	-5	-9
89	Cc1cc(C)c(NC(=O)CSc2nc(=O)n3cc(C)ccc3n2)c(C)c1	2	-1
90	COc1ccc(C(=O)Nc2sc3c(c2C#N)CC(C)(C)NC3(C)C)cc1	7	3
91	Cc1ccccc1-c1ncc(CN(C)CC2(CO)CCOCC2)s1	9	3
92	COCCN1C(=O)N(C2Cc3ccccc3C2)C(=O)C12CCN(Cc1ccc(-c3ccco3)cc1)CC2	8	0
93	CN1C(=C2C=NN(c3ccccc3)P2(=Nc2ccccc2)N2CCOCC2)C(C)(C)c2ccccc21 (stereo not drawn)	9	14
94	C=C(C)COc1ccccc1C(=O)N(C)Cc1nc2ccccc2[nH]1	-5	-9
95	CCC(C(=O)N1CCCC(C(=O)NC2CCCC[C@H]2NC(=O)c2ccc(OC)cc2)C1)c1ccccc1 (stereo partly drawn)	1	8
96	CCC(C)N(Cc1ccc(OC)c(OS(=O)(=O)c2cccc(C(F)(F)F)c2)c1)C(=O)c1ccccc1C (stereo not drawn)	-12	-17
97	Cc1cccc(CN2CCN(C(=O)c3cn(CCN)nn3)C(C)C2=O)c1 (stereo not drawn)	1	3
98	O=C1NC(=O)C(=Cc2cc(Br)c(Sc3ccc(Cl)cc3)o2)S1	-3	-4
99	COC(=O)CC1C(=O)NCCN1Cc1nc(-c2ccc(-c3ccccc3)cc2)oc1C (stereo not drawn)	-10	-14
100	Cc1ccc(-n2c(SCc3nc(C(=O)N4CCC(n5c(=O)[nH]c6ccccc65)CC4)cs3)nnc2-c2ccccc2Cl)cc1	19	14
101	O=C(CN1C(=O)c2ccccc2C1=O)Nc1cccc2ccccc12	0	-9
102	Cc1cn2c(CN(C)S(=O)(=O)N(C)C3CCCCC3)c(C)nc2s1	-6	-6
103	Cc1ccc(C(=O)NCCc2nnc3ccc(SCC(=O)Nc4cccc(F)c4)nn23)cc1	1	-10
104	Cc1c(C(=O)NCc2cccs2)sc(=O)n1Cc1ccc(S(C)(=O)=O)cc1	-2	-5
105	CCCCc1nc(-c2ccc(OCC(=O)NC(=O)NCC)cc2)no1	3	1
106	Cc1cc(=O)oc2c(-c3cc(-c4cccs4)nc(N)n3)c(O)ccc12	1	3
107	COC(=O)Cn1cc(CN2CCN3CCNC(=O)C3C2)c2ccccc21 (stereo not drawn)	25	11
108	CCC(C)Nc1cc(C)nc2c(C)c(-c3ccc(OC)c(OC)c3)nn12 (stereo not drawn)	2	-2

# Three compounds from above, arranged by number of heavy atoms, smallest number first:
item	canonical_smiles	NPYLR7 ag	NPYLR7 ag max-min
102	Cc1cn2c(CN(C)S(=O)(=O)N(C)C3CCCCC3)c(C)nc2s1	-6	-6
105	CCCCc1nc(-c2ccc(OCC(=O)NC(=O)NCC)cc2)no1	3	1
99	COC(=O)CC1C(=O)NCCN1Cc1nc(-c2ccc(-c3ccccc3)cc2)oc1C (stereo not drawn)	-10	-14

# Reprinted: compounds 8–12
item	canonical_smiles	NPYLR7 ag	NPYLR7 ag max-min
8	Cc1cc(=O)n2[nH]c(C)c(-c3ccc(Cl)cc3)c2n1	-2	-5
9	CC(NCc1ccccc1F)c1cccc2ccccc12 (stereo not drawn)	-3	-5
10	CC1COc2ncccc2C(=O)N1 (stereo not drawn)	0	10
11	CCN(CC)S(=O)(=O)c1ccc2c(c1)nc(SCc1c(F)cccc1Cl)n2C(C)C	17	9
12	CCc1cccc(N2C(=O)CSC2c2ccc(NC(=O)c3cccc(Br)c3)cc2)c1 (stereo not drawn)	-4	12

# Later entries.
item	canonical_smiles	NPYLR7 ag	NPYLR7 ag max-min
109	CCCS(=O)(=O)N1CCN(Cc2ccsc2)CC1	10	6
110	Cc1cc(C(=O)N(C)Cc2cccc(O)c2)c2ccc(F)cc2n1	-1	-3
111	Cc1ccnc(Nc2ccc(NCCNC(=O)Nc3cccc(C(F)(F)F)c3)nn2)c1	3	-2
112	CC(C)(C)CC(=O)Nc1ccc2nc(-c3cccs3)nn2c1	2	-9
113	Cc1ccc(CN(CC(=O)Nc2sc(C)c(C)c2C)C(C)C)s1	9	6
114	CN1CCC1(C)C(=O)Nc1cccc(Oc2ccccc2)c1 (stereo not drawn)	1	-1

# High-throughput results: PubChem BioAssay, Fisher Drug Discovery Resource Center
